From PubChem
Mtb H37Rv = Mycobacterium tuberculosis H37Rv growth inhibition, putative kinase inhibitor library, confirmatory dose response (AID 2842) | actives 5.2% (n = 24,000) | M. tuberculosis H37Rv growth inhibition; higher % means a stronger effect; some inactives read as strong as hits | inhibition, % at 10 µg/mL; hits with a dose series show IC90 in µg/mL;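 active means confirmed in a dose series; about a fifth of its hits are not listed in these tables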;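 further: bacteria incubated one week before Alamar blue readout; 0% = bacteria only wells and 100% = bacteria with high antibiotic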
Active calls of the source: *. The list is partial; the hit share may differ from the screen's.

canonical_smiles	Mtb H37Rv
CCOC(=O)c1oc2cc(OCc3ccc(C(=O)OC)o3)ccc2c(=O)c1-c1ccc(C(=O)OC)o1	-0.9%
O=C(Nc1cc2c3c(c1)CCC(=O)N3CCC2)c1ccccc1Br	9.2%
Cn1c2c(c(=O)[nH]c1=O)C(c1ccc(O)cc1)C1=C(CC(C)(C)CC1=O)N2 (stereo not drawn)	3.0%
NC1=NC(=O)/C(=C/c2ccc(C(=O)O)cc2)S1	-7.4%
Cc1ccc(C)c(-c2csc(Nc3ccc(C(=O)O)c(O)c3)n2)c1	56.7%
Nc1nc(SCc2ccc(Cl)cc2Cl)[nH]c(=O)c1NC(=O)c1ccc(F)cc1	-0.8%
CCOC(=O)c1nn(-c2ccc(C(F)(F)F)cc2)c(=O)c2c(NC(=O)CC)scc12	-1.1%
O=C(CN1N=NC2C(=O)N(c3ccc(F)c(Cl)c3)C(=O)C21)Nc1ccc(F)cc1 (stereo not drawn)	-24.3%
O=c1c2sc3ccccc3c2nc(SCc2ccccc2Cl)n1CCc1c[nH]c2ccccc12	2.1%
CCOC(=O)c1nn(-c2ccc(C)cc2)c(=O)c2c(NC(=O)C(C)Cl)scc12 (stereo not drawn)	5.3%
O=C(Nc1nc(-c2ccc3c(c2)OCCO3)cs1)c1ccccc1F	-9.8%
CCCCCNC(=O)C(=O)Nc1cc2c3c(c1)CC(=O)N3CCC2	12.2%
CCN1CCN(c2nc3c(c(=O)n(C)c(=O)n3C)n2CCSc2nc3ccccc3o2)CC1	-6.2%
CCOc1ccc2c(c1)O/C(=C\c1cccc(OCC(=O)OC)c1)C2=O	1.66µg/mL*
CCOc1ccccc1C(=O)Nc1nnc(-c2ccc(Cl)cc2)s1	18.8%
C=CCOc1ccc(/C(O)=C2\C(=O)C(=O)N(CCN(CC)CC)C2c2ccccn2)cc1 (stereo not drawn)	-11.2%
O=C(Nc1nc(-c2cccs2)c(C(=O)C(F)(F)F)s1)c1coc2ccccc2c1=O	-6.7%
CC(=O)c1ccc(C(=O)N(Cc2ccncc2)c2nc3c(C)ccc(Cl)c3s2)cc1	14.2%
CN(c1ccc(O)c(O)c1)c1cn2c(nc(=O)n2C(C)(C)C)s1	-10.2%
COc1cccc(CNc2nc3c(-c4ccc(Cl)cc4)nnn3c3ccccc23)c1	3.2%

canonical_smiles	Mtb H37Rv
NC(=O)c1nc(-c2cccc(F)c2)nc2c1[nH]c(=O)n2-c1ccccc1F	-5.7%
COc1cc2ccccc2cc1C(=O)Nc1nc2c(C)cc(C)cc2s1	6.7%
CSc1ccc2nc(Nc3cccc(C)c3)sc2c1	14.2%
NC(=O)c1ccsc1NC(=O)C1CC1	-6.2%
CSc1nc2ccc3nc(NC(=O)c4ccc(C(C)(C)C)cc4)sc3c2s1	7.1%
COC(=O)c1ccc2nc(NC(=O)c3nc4ccccc4s3)sc2c1	-9.7%
Cc1ccc(-n2cc(-c3ccc4c(c3)OCO4)nc2SCC(N)=O)cc1	5.2%
NC(=O)c1oc2ccccc2c1NC(=O)c1ccc(-c2nc3ccccc3s2)s1	-10.3%
N#C/C(=C\Nc1cc([N+](=O)[O-])ccc1F)c1nc(-c2cccs2)cs1	10.2%
CCOc1ccccc1NC(=O)c1oc2ccccc2c1NC(=O)C(CC)CC	-4.2%
Cc1ccc(CN2CCc3nc(SCC(=O)Nc4ccc(C)c(Cl)c4)[nH]c(=O)c3C2)cc1	50.0%
Cc1cc(SCC(=O)c2cccs2)nc(=O)[nH]1	-10.3%
CCOC(=O)N1CCN(/C=C2\C(=O)Oc3ccccc3C2=O)CC1	-3.5%
CCc1ccc(C2CC(=O)NC(SCC(=O)OC)=C2C#N)cc1 (stereo not drawn)	-16.7%
Cc1ccc(-n2c(=O)[nH]c3c(C(N)=O)nc(-c4ccc(Cl)cc4)nc32)cc1C	-16.6%
CC1CCc2c(sc(NC(=O)CS(=O)(=O)c3ccccc3)c2C(N)=O)C1 (stereo not drawn)	-1.5%
O=C(CNS(=O)(=O)c1cccs1)N1CCN(Cc2ccc3c(c2)OCO3)CC1	-10.3%
O/N=C/C1=CC(CC(O)CN2CCOCC2)c2ccccc21 (stereo not drawn)	-18.6%
Cc1nnc(SCC(=O)Nc2cccc3ccccc23)n(N)c1=O	-3.7%
Cc1cccc(CC(=O)Nc2c(C(=O)Nc3ccc4c(c3)OCCO4)oc3ccccc23)c1	0.9%

Shown with each value named: 4 of the compounds above
> CC1CCc2c(sc(NC(=O)CS(=O)(=O)c3ccccc3)c2C(N)=O)C1 (stereo not drawn)
  Mtb H37Rv = -1.5%
> O=C(CNS(=O)(=O)c1cccs1)N1CCN(Cc2ccc3c(c2)OCO3)CC1
  Mtb H37Rv = -10.3%
> O/N=C/C1=CC(CC(O)CN2CCOCC2)c2ccccc21 (stereo not drawn)
  Mtb H37Rv = -18.6%
> Cc1nnc(SCC(=O)Nc2cccc3ccccc23)n(N)c1=O
  Mtb H37Rv = -3.7%

Additional structures:
canonical_smiles	Mtb H37Rv
COc1ccccc1NC(=O)CCCn1c(=S)[nH]c2ccccc2c1=O	7.2%
O=C(NCc1ccccn1)C(=O)Nc1cc2c3c(c1)CCN3C(=O)CC2	-3.6%
CC1CCN(c2nc3c(c(=O)[nH]c(=O)n3C)n2CCSc2nc3ccccc3[nH]2)CC1	-4.9%
O=C(CC1Sc2ccccc2NC1=O)Nc1ccccc1C(F)(F)F (stereo not drawn)	2.5%
O=C(c1cccc(F)c1)N1CCN=C1SCc1ccc([N+](=O)[O-])cc1	0.5%
Cc1ccc(-c2nnc(NC(=O)c3cccc(F)c3)s2)cc1	8.2%
COc1ccc(CNC(=O)CSc2nc3[nH]ncc3c(=O)n2-c2ccccc2)cc1	0.5%
CCN(CC)c1ccc(NC(=O)c2cncc(Br)c2)cc1	36.5%
COC(=O)c1ccccc1NC(=O)c1ccc(N2C(=O)c3ccccc3C2=O)cc1	-1.3%
O=C(NNc1nc2c(Cl)cccc2s1)c1cc2ccccc2oc1=O	82.8%
Cc1cc2c(cc1C)NC(CC(=O)Nc1ccccc1Cl)C(=O)N2 (stereo not drawn)	-9.9%
O=C(CSc1nnc(-c2cccnc2)o1)Nc1ccc2c(c1)OCO2	-10.3%
CCOC(=O)c1nn(-c2ccc(F)cc2)c(=O)c2c(NC(=O)C3CCCCC3)scc12	-8.0%
O=C(Nc1nnc(-c2ccc(Br)cc2)o1)c1ccc(Oc2ccccc2)cc1	63.7%
O=C(CSc1nnc(-c2cccnc2)n1-n1cccc1)Nc1ccc(Cl)c(C(F)(F)F)c1	3.0%
C=CCn1c(=O)c2c(nc(N=Nc3c(O)[nH]c(=O)[nH]c3=O)n2C)n(C)c1=O	5.7%
CS(=O)(=O)c1ccc2nc(NC(=O)COc3ccccc3Cl)sc2c1	-2.2%
Cc1cc2c(=O)n(Cc3ccco3)c(SCC(=O)Nc3ccccc3)nc2s1	0.4%
COc1ccc(Cl)c2sc(N3CCN(C(=O)c4ccc(C#N)cc4)CC3)nc12	-2.0%
Cc1ccc(Cl)cc1NC(=O)C(=O)Nc1cc2c3c(c1)CCC(=O)N3CCC2	-7.9%

canonical_smiles	Mtb H37Rv
O=C(NC(=S)NC1CCS(=O)(=O)C1)c1ccccc1Cl (stereo not drawn)	-5.8%
COc1ccc2nc(-c3ccc(C)c(NC(=O)c4ccc5ccccc5c4)c3)cn2n1	-2.8%
CC1=C(C(=O)Nc2ccc(C)cc2C)C(c2cccc(Br)c2)NC(=O)N1 (stereo not drawn)	-5.2%
COc1ccccc1/C=C/C=N/NC(=O)Cn1cnc2ccccc21	13.1%
Cn1c(NC(=O)c2ccc(F)cc2)cc(=O)n(C)c1=O	-12.9%
Cc1ccc(S(=O)(=O)c2cnc(SCC(=O)Nc3ccc4c(c3)OCCO4)[nH]c2=O)cc1C	-16.8%
Cc1[nH]c2ccccc2c1C(Nc1ccccn1)c1cccc(Cl)c1 (stereo not drawn)	4.7%
N#C/C(=C\Nc1ccc2c(c1)OCCO2)c1nc2ccccc2[nH]1	62.1%
O=C1N=c2ccccc2=C1c1sc(N2CCN(c3ccccc3F)CC2)nc1O	-8.9%
Cc1ccc(C2CC(c3cccs3)=NN2C(=O)CSc2nc3c(cnn3-c3ccc(C)c(C)c3)c(=O)[nH]2)cc1 (stereo not drawn)	74.3%
O=c1c2nnn(-c3ccc(F)cc3)c2ncn1Cc1c(F)cccc1Cl	-1.7%
Cc1ccc2cc(CCNC(=O)c3cc4ccccc4oc3=O)c(=O)[nH]c2c1	-0.8%
COc1cccc(CNc2nc3c(-c4cccc(C)c4)nnn3c3ccccc23)c1	-8.0%
COc1cc(OC)cc(C(=O)Nc2cc3c4c(c2)C(C)C(=O)N4CCC3)c1 (stereo not drawn)	0.6%
Cc1nc2c(ccc3nc(Nc4nc5ccc(F)cc5s4)sc32)s1	12.6%
CN(C)c1nc2c(c(=O)[nH]c(=O)n2C)n1Cc1cccc(Br)c1	5.0%
O=C(O)/C=C/C(=O)NCc1cn(-c2ccccc2)nc1-c1ccc(Cl)cc1	-11.2%
CCC(=O)Nc1nnc(C23CC4CC(CC(C4)C2)C3)s1	42.5%
CCc1ccc(-c2nc(C(N)=O)c3[nH]c(=O)n(-c4ccc(F)cc4)c3n2)cc1	3.2%
O=C(Nc1nnc(-c2ccc(Cl)cc2)s1)c1ccc(N2C(=O)CCC2=O)cc1	5.9%

Arranged by formula weight (ascending): 3 of the compounds above.
canonical_smiles	Mtb H37Rv
O=C(O)/C=C/C(=O)NCc1cn(-c2ccccc2)nc1-c1ccc(Cl)cc1	-11.2%
Cc1ccc(S(=O)(=O)c2cnc(SCC(=O)Nc3ccc4c(c3)OCCO4)[nH]c2=O)cc1C	-16.8%
Cc1ccc(C2CC(c3cccs3)=NN2C(=O)CSc2nc3c(cnn3-c3ccc(C)c(C)c3)c(=O)[nH]2)cc1 (stereo not drawn)	74.3%

(further entries)
canonical_smiles	Mtb H37Rv
N#Cc1ccc(C(=O)Nc2nnc(-c3ccco3)o2)cc1	76.9%
O=C(Nc1nc2c(cc3c4c(cccc42)CC3)s1)c1cccc(F)c1	0.2%
Cc1cc(C)c2c(N)c(C(=O)Nc3ccc(C(=O)OC(C)C)cc3)sc2n1	11.9%
O=C(/C=C\c1ccc2c(c1)OCO2)Nc1nnc(-c2ccccc2Cl)s1	13.2%
Cc1ccc(NC(=O)CSc2nnc3[nH]c(=O)ccn23)cc1	50.1%
CSc1cccc2sc(Nc3cccc(Br)c3)nc12	6.73µg/mL*
CC(C)CSc1nc2c(c(=O)[nH]c(=O)n2C)n1CC(O)COc1ccc(Cl)cc1 (stereo not drawn)	16.4%
COc1ccc(C(=O)Nc2nc3c(C)cccc3s2)cc1OC	12.7%
O=C(Nc1nnc(-c2ccc(Br)cc2)o1)c1cccc(Cl)c1	83.7%
Cc1ccc(-n2ncc3c(SCC(=O)Nc4ccc(C(N)=O)cc4)ncnc32)c(C)c1	-0.1%
NC(=O)c1c(NC(=O)c2ccc(Cl)cc2Cl)sc2c1CCN(Cc1ccccc1)C2	7.3%
CCS(=O)(=O)c1cccc(C(=O)Nc2nnc(-c3ccc4c(c3)OCCO4)o2)c1	-2.5%
CCOC(=O)c1nn(-c2ccc(Cl)cc2)c(=O)c2c(NC(=O)c3ccc([N+](=O)[O-])cc3)scc12	-0.9%
Cc1c(C)n2c(SCC(=O)OCc3ccccc3)nnc2[nH]c1=O	-14.9%
O=C(O)CCCN1C(=O)C2C3CC(C2C1=O)C1C(c2ccc(O)cc2)c2sc(=O)[nH]c2SC31 (stereo not drawn)	-6.5%
COCCCNc1ncnc(N)c1[N+](=O)[O-]	0.2%
COC(=O)Cn1c(-c2ccccc2)cn2c3c(=O)n(C)c(=O)n(C)c3nc12	-6.9%
O=C(NCc1ccccn1)C(=O)c1c[nH]c2ccccc12	5.9%
COc1ccc(C(=O)Nc2nc(-c3ccc(Cl)c(Cl)c3)cs2)cc1	10.4%
Cc1ccc(NC(=O)CSc2nc3c(oc4ccccc43)c(=O)n2Cc2ccc(F)cc2)cc1	-12.4%

canonical_smiles	Mtb H37Rv
Cc1ccc2sc(N3CCN(C(=O)/C=C/c4ccc([N+](=O)[O-])cc4)CC3)nc2c1C	-4.0%
Cc1ccc(C)c2[nH]c(=O)c(CCNC(=O)c3ccc(Cl)c([N+](=O)[O-])c3)cc12	-14.5%
COc1ccc(-n2c(=O)[nH]c3c(C(N)=O)nc(-c4cccnc4)nc32)cc1	6.4%
CCOC(=O)C(C)Oc1cccc2c(=O)n(CC(=O)N3CCCCC3)ccc12 (stereo not drawn)	-3.1%
O=C(Cc1csc(NC(=O)c2ccc3c(c2)OCO3)n1)NCc1ccncc1	-4.2%
O=C(CC1(O)C(=O)Nc2ccc(Cl)cc21)c1ccccc1 (stereo not drawn)	11.9%
C=C(C)Cn1c(SCC(=O)OCC)nc2c1c(=O)[nH]c(=O)n2C	2.5%
O=C(CSc1nnc(-c2cccnc2)o1)Nc1nc2ccccc2s1	-9.7%
CCOC(=O)c1c(NC(=O)/C=C/C(N)=O)sc2c1CCCC2	6.76µg/mL*
Nc1nc(SCC(=O)Nc2ccccc2F)[nH]c(=O)c1NC(=O)c1ccc(F)c(F)c1	-6.3%
CCOC(=O)c1nn(-c2ccc(C)cc2)c(=O)c2c(NC(=O)c3ccc(S(=O)(=O)N4CCOCC4)cc3)scc12	-8.0%
COc1ccccc1C1NC(=O)NC(C)=C1C(=O)Nc1ccc(C)c(Cl)c1 (stereo not drawn)	-6.3%
Cc1cccc(Cn2c(=O)c3c(nc4n(Cc5ccco5)c(C)c(C)n34)n(C)c2=O)c1	-6.1%
O=C(Nc1nc(-c2cccs2)cs1)c1ccc2ncsc2c1	-3.9%
